# Menin MLL FP FL: displaces fluorescein MLL peptide from human menin. Fluorescence polarization, fluorescein-MLL peptide displacement from menin. FP activity change, % at 61.4 µM. 290,000 tested, under 10 active; inconclusive = falling polarisation curve, or a change in total fluorescence; inactive = total fluorescence flat and polarisation flat or rising; no compound was filed as active; the % refers to the polarisation; negative = inhibition;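 further: % of control where 0% means no effect; inhibitors lower the polarisation; unlabelled MLL peptide was the positive control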
# gsp ag: activates gsp, the McCune-Albright syndrome mutation. gsp mutant cells, cAMP HTRF, 30 min; control for the full effect not named in the record. Potency, µM (series often up to 76.9 µM), inactives show at the highest dose activation (cAMP increase), most hits filed as activators. hit rate 0.13% among 340,000; active = well fitted activation curve with a large enough effect; inconclusive = small, poorly fitted or top-dose-only effect, or another doubt; inactive = no such curve, though single readings can be large or run the other way; cell line not stated here;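 further: phosphodiesterase inhibitor Ro 20-1724 added with compounds to block cAMP breakdown; potency means the concentration at half of the fitted maximal effect; nearly all actives have a fitted effect of over 60% in size; about a fifth of the inactives were tested at one dose only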
#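 Cells stably selected in G418 were plated at 2000/well, grown 16-24 hr, then given compounds in DMSO with the PDE inhibitor […] (300 uM solution added) for 30 min at 37C; cAMP was read by HTRF.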
# TRPV1 PAM: potentiators of human vanilloid receptor 1 (TRPV1); Q8NER1; TRPV1-expressing cells, Fluo-8 calcium influx, capsaicin EC20 potentiation; host cell line not named in the record; control for the full effect not named in the record; potentiation, % at 8.33 µM; hit rate 0.02% among 320,000; AID 540277; active means potentiation above 80%; inconclusive means 30% to 80%; inactive means below 30%; further: 0% is about no effect
#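 Cells expressing TRPV1 were dye-loaded with Fluo-8 and read kinetically: 10 s baseline, 3 min after compound (agonist portion), then 2 min after EC20 capsaicin (allosteric enhancer portion). Calcium-bound dye fluorescence at 480/520 nm.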
# Sfp inh: Sfp phosphopantetheinyl transferase inhibition | Q9F4F7 | Biochemical Sfp PPTase activity, qHTS | Potency, µM, for the others: max response, negative = inhibition, most hits filed as inhibitors | hit rate 3.5% among 310,000 | AID 1490; active means well fitted inhibition curve with a large enough effect; inconclusive means small, poorly fitted or top-dose-only effect, or another doubt; inactive means no such curve, though single readings can be large or run the other way;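 further: the enzyme is Sfp with the accession as filed and its product quenches rhodamine fluorescence; potency means the concentration at half of the fitted maximal effect; 0% = enzyme reaction without inhibitor and -100% = no enzyme wells; top concentration of the series not given in the record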
#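 Compounds were incubated with enzyme (final 15 nM) for 15 min at room temperature before substrate addition started the reaction. Fluorescence at 525 nm excitation, 598 nm emission was recorded immediately and after 30 minutes.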
# gsp antagonist: antagonists of gsp mutant (McCune-Albright syndrome); hit rate 0.4% among 340,000; gsp-mutant cells, cAMP HTRF, 30 min; control for the full effect not named in the record; Potency, µM (titrated, usually from 76.9 µM), without a hit: at the highest dose activity change, negative = inhibition, actives largely listed as inhibitors; AID 624288; active = falling curve of any shape with a large fitted effect; inconclusive = falling curve, mostly with a smaller effect; inactive = flat or rising curve; cell line not stated here;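 further: intracellular cAMP measured with PDE inhibitor Ro 20-1724 present during compound exposure; potency means the concentration at half of the fitted maximal effect; on the % scale 0 is the no-effect control and ±100 the full control effect; nearly all actives have a fitted effect of over 65% in size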
#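 Cells in G418 medium, seeded 16-24 h, 37C; buffer exchange to DPBS + 1 mM CaCl2, 0.5 mM MgCl2, 0.05% BSA; cpds in DMSO + […] (300 uM stock), 30 min 37C; HTRF cAMP detection.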
# D2 PAM: human D2 receptor positive allosteric modulation | P14416 | DiscoveRx D2 beta-arrestin cells, luminescence, 90 min; 100% = 57 uM dopamine signal | potentiation, % (test concentration not listed) | hit rate 0.23% among 360,000; active = potentiation of 50% or more; inconclusive = 30% to 50%; inactive = 30% or less;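 further: compound concentration not given in the record; tested on top of an EC20 dose of dopamine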
# Target sequence (P14416 whole entry, looked up): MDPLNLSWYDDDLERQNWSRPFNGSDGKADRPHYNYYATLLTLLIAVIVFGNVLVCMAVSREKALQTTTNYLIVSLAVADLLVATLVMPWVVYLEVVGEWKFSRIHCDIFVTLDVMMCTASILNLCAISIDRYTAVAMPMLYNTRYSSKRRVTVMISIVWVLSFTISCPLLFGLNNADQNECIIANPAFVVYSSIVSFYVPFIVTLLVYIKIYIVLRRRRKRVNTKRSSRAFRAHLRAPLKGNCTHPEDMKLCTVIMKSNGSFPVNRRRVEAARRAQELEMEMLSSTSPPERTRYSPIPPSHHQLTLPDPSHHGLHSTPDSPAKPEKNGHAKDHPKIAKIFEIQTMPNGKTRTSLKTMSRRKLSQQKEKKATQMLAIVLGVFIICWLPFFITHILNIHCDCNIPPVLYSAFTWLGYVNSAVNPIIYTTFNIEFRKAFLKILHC
#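 PathHunter D2 cells, attached overnight at 37 deg C, received compound in DMSO plus dopamine at EC20 (50 nM final) for 90 min at 37 deg C. Beta-arrestin recruitment was read as luminescence after 1 h with detection reagent at ambient temperature.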
# ClpP mod: qHTS Assay for Activators of ClpP; ATP-dependent Clp protease proteolytic subunit (Bacillus subtilis (strain 168)), P80244; purified B. subtilis ClpP, FRET peptide cleavage, 20 min; Potency, µM (series often up to 57.5 µM), inactives show at the top dose activity change, negative = active; hit rate 1.9% among 340,000; active = well fitted falling curve with a large enough effect; inconclusive = small, poorly fitted or top-dose-only effect; inactive = no such curve, though single readings can be large or run the other way; further: potency means the concentration at half of the fitted maximal effect; the source files actives as falling curves though it sought activators and does not explain the sign; nearly all actives have a fitted effect of over 65% in size; many hits overshoot -100%
# Target sequence (P80244 whole entry, looked up): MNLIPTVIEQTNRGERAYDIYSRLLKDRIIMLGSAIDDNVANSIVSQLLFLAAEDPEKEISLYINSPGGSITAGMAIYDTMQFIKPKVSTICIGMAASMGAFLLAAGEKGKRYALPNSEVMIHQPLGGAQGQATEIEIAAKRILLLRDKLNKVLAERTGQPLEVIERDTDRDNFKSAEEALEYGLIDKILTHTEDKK
#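 ClpP 10 microg/mL final, pH 8 Tris/KCl buffer with BSA, glycerol, Tween-20; compound pinned in; FRET-FV substrate; RT 20 min; Ex320/Em430; ΔFRET vs ADEP 5.8 microM, DMSO, no enzyme.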
# An asterisk follows results filed as active; ? = inconclusive; . = no result given; & = joins results of further samples; [ ] = dose if it differs, or a comment.
SMILES,Menin MLL FP FL,gsp ag,TRPV1 PAM,Sfp inh,gsp antagonist,D2 PAM,ClpP mod
C[C@@H](C(=O)OCn1nnc2ccccc2c1=O)N1C(=O)C2CCCCC2C1=O (stereo not given in full),0.1,?,5.7,4.0%,-1.0%,-2.2,3.0%
Nc1ccc(-c2nc3ccc(N)cc3s2)cc1,7.3,8.9%[15.4 µM],-4.3,-12.9%,-1.0%,10.4,.
CCN(CC)C(=O)Nc1cnc2ccccc2c1,0.3,-4.3%,-10.1,5.0%,1.0%,-20.4,-14.7%
CC1(C)CC(=O)c2c(O)cc(OCC(=O)NCCc3ccc(S(N)(=O)=O)cc3)cc2O1,-0.5,.,-7.1,12.3%,-10.5%,-27.5,-1.0%
CCOc1ccc(NC(=O)CN(C)C(=O)C2CC(=O)N(CCc3ccc(OC)c(OC)c3)C2)cc1OCC (stereo not given),.,-26.8%,.,.,18.6%,-14.3,1.7%
CN(CCN1CCOCC1)C(=O)c1cc(COc2ccc(F)cc2Cl)on1,.,-59.2%[inhibitor],.,.,.,-5.5,-0.2%
COc1ccc(NC(=S)N/N=C2\CC(C)(C)Oc3ccc(O)cc32)cc1,-2.0,17.5%,12.1,-2.8%,-25.6%,-5.6,-28.8%
CCCCn1c(=O)n(CC(=O)Nc2c(CC)cccc2CC)c(=O)c2c1nc(CO)n2CCC,2.8,-11.3%,11.2,11.0%,-0.8%,-14.8,-1.0%
COc1ccccc1-c1ccc(SCC(=O)NC2CCCCC2)nn1,-2.1,-24.8%,6.9,3.5%,-2.5%,-12.6,-2.0%
CN(CC(=O)NCc1ccc(Cl)cc1)S(=O)(=O)c1cccc2nsnc12,0.4,?,4.4,-2.5%,-1.2%,2.2,1.6%
COc1ccc(C(=O)Nc2ccnn2C2CCN(Cc3ccncc3)CC2)cc1,-12.4,7.4%[15.4 µM],11.7,3.1%,12.4%,-3.6,1.6%
Cc1ccc(-n2c(O)c(/C=C3/C(c4ccccc4)=Nc4ccccc43)c(=O)[nH]c2=O)cc1,23.9,18.2%,6.6,-23.5%,4.3%,-10.3,-10.8%
CNc1ccc(Br)cc(C(=O)/C=C/c2ccc(OC)cc2OC)c1=O,12.1,?,-8.6,?,-0.8%,8.1,-1.3%
S=C(NCc1ccccn1)Nc1ccc(Cl)c(Cl)c1,6.4,-7.9%,23.5,-29.4%,2.7%,-1.8,1.3%
Cn1c(=O)c2c(ncn2CC(=O)N/N=C/c2ccco2)n(C)c1=O,0.1,?,2.6,8.2%,-6.9%,-5.3,?
C[C@@H]1COC(=O)[C@@H](CC(=O)OC(C)(C)C)C/C=C\C[C@@H](CC(=O)N[C@@H](CO)Cc2ccccc2)C(=O)N1,.,-33.7%,.,.,13.5%,-6.4,0.1%
Cc1ccc(NC(=O)C2=C(O)c3ccccc3N(C)S2(=O)=O)cc1,-0.1,5.9%,1.5,25.3%,?,-0.2,-1.8%
Cc1cc(C)n(-c2nnc3c4ccccc4n(C)c3n2)n1,-0.2,19.3%,2.3,8.6%,-3.1%,-4.3,.
O=C1COc2ccc(S(=O)(=O)Nc3ccc4c(c3)OCO4)cc2N1,-7.2,-3.4%,-4.8,12.8%,4.1%,0.6,.
COc1cc(C2CC(=O)N(c3ccc(C)cc3)C(=O)C2)cc(OC)c1OC,4.3,-0.5%[15.4 µM],-2.2,3.2%,11.7%,-4.4,.
COC(=O)[C@@]1(Cc2ccc(F)cc2)[C@H]2c3cc(C(=O)N4CCCC4)n(Cc4ccc(OC(F)(F)F)cc4)c3C[C@H]2CN1C(=O)c1ccccc1,13.9,.,.,24.5%,.,.,-2.9%
CCCCCCOC(=O)C(C#N)c1nc2ccccc2nc1N1CCN(C)CC1 (stereo not given),0.3,-0.1%,-3.4&-2.7,-5.1%,4.2%,6.2,0.7%
COCc1cc(C)nc(SCc2ccc(F)cc2)c1C#N,-1.4,-4.0%[15.4 µM],13.8,-18.6%,6.1%,-0.6,0.8%
O=C(COC(=O)c1ccc(F)c(S(=O)(=O)N2CCOCC2)c1)NCc1ccc(F)cc1,.,13.3%[15.4 µM],.,.,-0.7%,-10.2,-0.7%
CCOC(=O)C(C(=O)OCC)C(Nc1ccccc1)c1ccccc1 (stereo not given),-0.8,-0.1%,3.0,-4.9%,13.9%,-3.8,0.1%
Cc1nonc1CC(=O)NC1CCCc2c1cnn2-c1ccc(F)cc1F (stereo not given),.,?,-23.7,13.9%,-18.8%,15.4,0.7%
COc1cc(CC(=O)OCC(=O)N2CC(=O)Nc3ccccc32)cc(OC)c1OC,-2.2,-5.0%[15.4 µM],-1.2,17.9%,5.4%,-3.8,.
C[C@H]1CN([C@@H](C)CO)C(=O)CCCn2cc(nn2)CO[C@@H]1CN(C)C(=O)Nc1ccnc(N2CCOCC2)c1,.,-37.9%[inhibitor],.,.,.,3.6,3.8%
O=C(NCc1cccs1)c1cnc2ccccn2c1=O,3.2,?,-0.9,-3.3%,6.7%,-0.7,25.1µM*
CCCNC(=O)C(Cc1ccccc1)NC(=O)c1cccc([N+](=O)[O-])c1 (stereo not given),.,?,-2.0,.,2.2%,-10.4,-2.6%
O=C(O)C1C(c2ccccc2)C(C(=O)OCCCO)C1c1ccccc1 (stereo not given),-1.0,-33.5%,-8.9,-0.7%,6.6%,1.8,-1.2%
COc1ccc(CCN2C(=O)/C(=C\c3ccco3)SC2=S)cc1OC,?,4.6%,-10.1,17.8µM*,-4.3%,-1.5,.
O=C(NNc1nc(-c2ccc(Cl)cc2)cs1)c1ccco1,5.3,?,0.9,-22.3%,0.8%,1.3,-1.1%
CCCn1ncc(CN2CCC(N3CCC(C(=O)N4CCOCC4)CC3)CC2)c1C,-5.3,-4.5%[15.4 µM],-7.7,18.8%,-11.6%,-4.3,-0.2%
CCOC(=O)c1ccc(NC(=O)N2CCN(Cc3ccccc3)CC2)cc1,3.3,2.5%,-13.5,3.7%,-3.9%,-8.3,.
N#CCCn1cc(/C=N/NC(N)=S)c(-c2ccccc2)n1,3.2,-40.2%[inhibitor],-2.6,-20.3%,2.5%,-3.7,.
COc1ccc(CCNC(=O)C2CCC(=O)N2CCc2ccccc2)cc1OC (stereo not given),-0.1,?,10.6,12.2%,-2.4%,-12.2,1.1%
CCOC(=O)c1ccc(NC(=O)N2CCN(Cc3cccc(F)c3)CC2)cc1,0.3,13.7%,8.5,10.2%,-3.0%,-5.6,0.1%
Cc1cccn2c(=O)c(C(=O)NC3CC(C)CC(C)(C)C3)c(O)nc12 (stereo not given),.,0.1%[15.4 µM],1.0,.,12.7%,-24.1,.
COc1cccc(NC(=O)NCC2CCN(Cc3ccc(F)cc3)CC2)c1,10.4,1.0%,-22.9,2.8%,12.4%,-9.4,-1.7%
CCN(CC)C(=O)CSc1nnc2sc3ccccc3n12,3.1,?,-6.7,19.8%,-1.4%,-5.6,0.5%
CS(=O)(=O)N(CC(=O)NCC1CCCO1)c1cc(Cl)cc(Cl)c1 (stereo not given),1.6,-3.5%,.,-0.9%,7.0%,-11.3,-1.3%
CS(=O)(=O)c1ccc(N)cc1,1.9,-0.8%,12.0,13.3%,7.3%,-5.8,-1.9%
O=c1oc2ccc(Br)cc2cc1S(=O)(=O)c1ccc(F)cc1,12.7,16.2%,-2.9,-3.3%,-4.0%,-6.2,0.5%
CCN(CC)CCNC(=S)Nc1ccc2nc(N3CCN(C)CC3)cc(C)c2c1,-0.7,-1.0%,-6.4,?,2.2%,-8.9,.
O=C(CCCCCn1nnc2ccccc2c1=O)Nc1ccccc1F,-7.2,33.6%[15.4 µM],11.5,-1.0%,-9.4%,-4.2,.
CCOC(=O)CSc1ncc(-c2ccccc2)nn1,1.6,2.8%,-2.7,12.9%,-4.2%,-4.0,-1.7%
COc1ccc(-c2cc(C(F)(F)F)n3ncc(C(=O)NCC4CCCO4)c3n2)cc1OC (stereo not given),-16.0,-54.0%[inhibitor],-23.1,19.7%,30.1%[activator],-4.3,-0.2%
CN1C[C@@H]2[C@@H]3C(=O)N(Cc4ccccc4)C(=O)[C@@H]3[C@](C)(C1=O)N2C(=O)c1ccc(C(F)(F)F)cc1,.,0.5%,.,.,5.2%,-2.2,1.2%
COc1ccccc1NC(=O)CN1C(=O)C(C)Oc2ccccc21 (stereo not given),-0.8,?,-15.2,5.3%,4.6%,-6.7,1.1%
COc1ccccc1NS(=O)(=O)c1ccc(O)c(C(=O)OCc2cccc([N+](=O)[O-])c2)c1,0.2,3.6%,7.9,-5.1%,-23.7%,0.7,.
COc1ccc(C(c2nnnn2C(C)C)N2CCN(C(=O)c3ccco3)CC2)cc1 (stereo not given),?,1.9%[15.4 µM],4.3,0.4%,0.7%,-4.1,-1.8%
COc1ccc(-c2cn3cccnc3n2)cc1NC(=O)C1CC1,0.9,-32.7%[inhibitor],-1.9,-6.2%,1.0%,-1.9,?
Cc1ccc(S(=O)(=O)NCC(=O)N(CC2CCCO2)C(C(=O)NC2CCCC2)C(C)C)cc1 (stereo not given),-1.9,-4.9%[15.4 µM],3.5,5.6%,5.3%,-4.5,-7.0%
Clc1ccc(-c2csc(N/N=C/c3ccco3)n2)cc1,2.4,-0.3%[15.4 µM],15.8,?,3.0%,17.0,0.0%
O=C(COC(=O)c1cc[n+]([O-])cc1)NCCc1ccc(Cl)cc1Cl,-2.7,-6.7%,-19.8,1.8%,5.0%,0.4,1.3%
CN(C)S(=O)(=O)c1ccc(C(=O)OCC2COC(C)(C)O2)cc1 (stereo not given),-3.1,18.6%,-3.1,-1.1%,-0.7%,-4.1,.
O=C(CN1CCN(S(=O)(=O)c2cccc(Br)c2)CC1)NCCc1cccs1,.,0.8%,?,.,-19.3%,-2.1,-0.1%
Cc1nc(Cl)sc1C(=O)Nc1cc(F)cc(F)c1,-3.2,14.5%[15.4 µM],-17.6,2.0%,3.3%,4.3,-2.0%
O=C(/C=C/c1ccccc1)OCC(=O)c1ccc[nH]1,.,-10.1%[15.4 µM],23.9,.,4.7%,-0.4,.
CN(C)S(=O)(=O)c1ccc(C(=O)NCc2nnc(SCC(=O)c3ccccc3)o2)cc1,-1.9,-3.6%,3.9,-5.4%,-0.9%,18.6,-3.5%
CCOC(=O)N1CCN(C(=O)C(=O)Nc2sc3c(c2C(=O)O)CC(C)(C)OC3)CC1,.,-6.1%,12.5,1.3%,-5.3%,5.6,-0.3%
Cc1nn(CC(N)=O)c(=O)c2ccccc12,1.8,8.5%,0.2,3.8%,2.4%,-4.6,-10.0%
